TRPML1 ag: qHTS for Agonists of the Human Mucolipin Transient Receptor Potential 1 (TRPML1). TRPML1-expressing cells, Ca2+ dye fluorescence, FDSS; host cell line not named in the record; reference of the full effect not given here. activation, % (no concentration beside the values). hit rate 0.12% among 410,000; in the data active = activation above about 50%; inconclusive = about 30% to 50%; inactive = below about 30%; also: 0% is about no effect; the text of the record puts the active cut at 80%
Target sequence (Q9GZU1 whole entry, looked up): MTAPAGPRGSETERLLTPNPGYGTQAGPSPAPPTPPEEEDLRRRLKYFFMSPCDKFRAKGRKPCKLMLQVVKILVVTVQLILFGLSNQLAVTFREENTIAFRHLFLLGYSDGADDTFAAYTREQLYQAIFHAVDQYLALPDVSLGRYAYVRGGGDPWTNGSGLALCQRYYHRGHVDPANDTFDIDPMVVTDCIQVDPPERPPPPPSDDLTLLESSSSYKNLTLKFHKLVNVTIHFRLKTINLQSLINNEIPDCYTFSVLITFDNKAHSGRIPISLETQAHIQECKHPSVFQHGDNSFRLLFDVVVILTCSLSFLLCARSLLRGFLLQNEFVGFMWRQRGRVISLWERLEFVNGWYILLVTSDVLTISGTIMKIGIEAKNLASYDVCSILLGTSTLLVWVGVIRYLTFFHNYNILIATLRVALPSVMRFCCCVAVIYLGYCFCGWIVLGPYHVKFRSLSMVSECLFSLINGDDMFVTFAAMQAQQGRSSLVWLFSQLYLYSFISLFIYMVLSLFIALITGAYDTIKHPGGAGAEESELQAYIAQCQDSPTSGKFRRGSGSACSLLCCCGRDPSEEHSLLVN
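Agonist activity was taken from a 110 s kinetic Ca2+ dye read on the FDSS after pinning compounds onto TRPML1-DL cells. The cells were seeded at 1,500/well with Tet inducer, incubated about 16 h, then dye-loaded at room temperature.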
TRPML1 inh: qHTS for Inhibitors of the Human Mucolipin Transient Receptor Potential 1 (TRPML1); Mucolipin-1 (Homo sapiens), Q9GZU1; TRPML1-inducible cells, Ca2+ dye fluorescence, FDSS; stronger effect = lower value; inhibition of EC80 agonist-evoked calcium signal; activity change, negative = inhibition, % (no concentration beside the values); hit rate 0.02% among 390,000; AID 624415, 2012; in the data active means activity change below about -50%; inconclusive means about -30% to -50%; inactive means above about -30%;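 also: stimulus is agonist 54-4 at its EC80 concentration; % is scaled to controls: 0 for no effect and ±100 for the full control effect; compound concentration not given in the record; the text of the record puts the active cut at -80%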
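TRPML1-DL cells, Tet-induced overnight (~16 h, 37 °C) at 1,500 cells/well, were loaded with Ca8 no-wash dye plus quencher for 45-90 min at room temperature. Compounds were pinned during FDSS kinetic reading; agonist 54-4 at EC80 (4 uM final) then added.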
PINK1 expr mod: A Quantitative High throughput Screen to Identify Chemical Modulators of PINK1 Expression | hit rate 0.2% among 410,000 | PINK1 immunofluorescence, high-content cytometry, 24 h | AID 624263, 2012 | Potency, µM (titrated, usually from 76.6 µM), without a hit: at the highest dose activation (PINK1 increase), most hits filed as activators; active = well fitted activation curve with a large enough effect; inconclusive = small, poorly fitted or top-dose-only effect; inactive = flat fitted curve, though single readings scatter; cell line not stated here;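 also: potency is read from the fitted curve at half-maximal effect; % of control where 0% means no effect; nearly all actives have a fitted effect of over 65% in size; a mitochondrial uncoupler was the plate control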
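Decision-based qHTS: stable cells, 24 h exposure to five compound concentrations, CCCP as control. Fixed cells stained for PINK1 plus nuclear, mitochondrial and cell markers, cytometer read.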
TRPV1 potentiator: HTS Assay for Compounds that Act as Potentiators of the Vanilloid Receptor 1; Transient receptor potential cation channel subfamily V member 1 (Homo sapiens), Q8NER1; hit rate 0.02% among 320,000; AID 540277, 2011; potentiation, % at 8.33 µM; TRPV1-expressing cells, Fluo-8 calcium influx, capsaicin EC20 potentiation; host cell line not named in the record; control for the full effect not named in the record; active means potentiation above 80%; inconclusive means 30% to 80%; inactive means below 30%; also: 0% is about no effect
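Fluo-8 calcium influx in TRPV1-expressing cells, kinetic read (ex 480/em 520 nm). Compound added and read 3 min for agonist activity, followed by capsaicin at EC20 final and 2 min further read for enhancement.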
Menin MLL FP FL: qHTS Assay for Inhibitors Targeting the Menin-MLL Interaction in MLL Related Leukemias: Competition With Fluorescein Labeled MLL-derived Peptide | Fluorescence polarization, fluorescein-MLL peptide displacement from menin | FP activity change, % at 61.4 µM | 290,000 tested, under 10 active; inconclusive = falling polarisation curve, or a change in total fluorescence; inactive = total fluorescence flat and polarisation flat or rising; no compound was filed as active; the % refers to the polarisation; negative = inhibition;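 also: % of control where 0% means no effect; inhibitors lower the polarisation; unlabelled MLL peptide was the positive control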
ClpP mod: qHTS Assay for Activators of ClpP | ATP-dependent Clp protease proteolytic subunit (Bacillus subtilis (strain 168)), P80244 | AID 651965, 2013 | hit rate 1.9% among 340,000 | Potency, µM (series often up to 57.5 µM), inactives show top-dose activity change, negative = active | purified B. subtilis ClpP, FRET peptide cleavage, 20 min; active = well fitted falling curve with a large enough effect; inconclusive = small, poorly fitted or top-dose-only effect; inactive = no such curve, though single readings can be large or run the other way; also: potency is read from the fitted curve at half-maximal effect; the source files actives as falling curves though it sought activators and does not explain the sign; nearly all actives have a fitted effect of over 65% in size; many hits overshoot -100%
Target sequence (P80244 whole entry, looked up): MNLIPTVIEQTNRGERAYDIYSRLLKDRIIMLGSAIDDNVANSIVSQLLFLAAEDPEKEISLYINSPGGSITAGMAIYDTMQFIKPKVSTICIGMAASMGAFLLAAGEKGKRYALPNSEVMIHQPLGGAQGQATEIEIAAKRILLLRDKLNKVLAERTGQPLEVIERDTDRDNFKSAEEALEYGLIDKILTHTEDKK
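Purified B. subtilis ClpP, 10 microg/mL final in Tris/HCl pH8 with KCl, BSA, glycerol and Tween-20, cleaved an Abz/nitrotyrosine-quenched decapeptide. Fluorescence (ex 320, em 430) was read at 0 and 20 min at room temperature. Delta was normalized to 5.8 microM ADEP and DMSO/no-enzyme controls.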
Sfp inh: qHTS Assay for Inhibitors of Bacillus subtilis Sfp phosphopantetheinyl transferase (PPTase); 4'-phosphopantetheinyl transferase ffp (Bacillus subtilis), Q9F4F7; hit rate 3.5% among 310,000; Biochemical Sfp PPTase activity, qHTS; AID 1490, 2009; Potency, µM, for inactives: max response, negative = inhibition, most hits filed as inhibitors; active = well fitted inhibition curve with a large enough effect; inconclusive = small, poorly fitted or top-dose-only effect, or another doubt; inactive = no such curve, though single readings can be large or run the other way;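 also: the enzyme is Sfp with the accession as filed and its product quenches rhodamine fluorescence; potency is read from the fitted curve at half-maximal effect; 0% = enzyme reaction without inhibitor and -100% = no enzyme wells; top concentration of the series not given in the record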
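Step 1, compound plus 15 nM Sfp-PPTase, 15 min, room temperature. Step 2, add rhodamine-CoA (5 uM) and BHQ-2-YbbR (12.5 uM). Step 3, read 525/598 nm fluorescence at 0 and 30 min.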
* marks the source's active call; other numbers are inactive results; ? = inconclusive; . = not tested or not shown.

| Molecule | TRPML1 inh | Menin MLL FP FL | PINK1 expr mod | ClpP mod | TRPV1 potentiator | TRPML1 ag | Sfp inh |
| --- | --- | --- | --- | --- | --- | --- | --- |
| COc1ccccc1N1CCN(c2nc3ccc(C)cc3n3nnnc23)CC1 | 4 | . | 1.0% | 1.1% | . | 1.2 | . |
| CCCCn1c(N)c(N(C(=O)CSc2nnnn2-c2ccccc2C)C2CCCC2)c(=O)[nH]c1=O | 16 | . | 0.4% | -1.0% | -15 | -0.1 | . |
| COC(=O)c1cc(OC)c(OC)cc1NC(=S)N1CCN(Cc2ccccc2)CC1 | 11 | 1.8 | . | 2.1% | 8 | 0.2 | 13% |
| CCOc1ccc2[nH]c3c(NCC(C)C)ncnc3c2c1 | . | -0.2 | 7.7% | 4.1% | -7 | . | -17% |
| CN1CCN(C(=O)c2cnn(-c3ccccc3)c2C2CCN(C(=O)OC(C)(C)C)CC2)CC1 | 1 | . | 2.0% | -1.2% | . | -0.4 | . |
| Clc1ncn(CCOc2ccccc2)c1Cl | -1 | -0.1 | 2.2% | 0.2% | -16 | -1.5 | 13% |
| CCN(CC)C(=O)Cn1cc(C(=O)C(=O)NCCCn2ccnc2)c2ccccc21 | 3 | -0.7 | 0.9% | . | 1 | -0.2 | 18% |
| Cc1nc2cc(Cl)ccc2n1-c1ccccc1 | 9 | 3.9 | -3.8% | 0.8% | 21 | 1.6 | 2% |
| Cc1nn(-c2ccccc2)c2[nH]c(C(F)(F)F)cc(=O)c12 | 18 | -1.1 | -0.5% | ? | 10 | 1.0 | 19% |
| O=C(COC(=O)Cc1c[nH]c2ccccc12)NC1CCCCC1 | 6 | -0.7 | -0.4% | . | 16 | -0.8 | 16% |
| Cc1ccc(Cn2ccsc2=NC(=O)COC(=O)c2ccc(O)cc2O)cc1 | 20 | 0.5 | 4.4% | -1.9% | -7 | 1.9 | 7% |
| O=C(O)c1cccc2c1C(=O)c1cc(Br)ccc1S2(=O)=O | 25 | . | -1.8% | 2.6% | 0 | 2.6 | . |
| FC(F)(F)c1nnc2ccc(N3CCCCCC3)nn12 | 2 | -1.3 | -0.5% | -0.8% | -17 | -1.0 | 18% |
| CCOC(=O)C1CCCN(c2c(N3CCN(c4ccccn4)CC3)c(=O)c2=O)C1 (stereo not drawn) | 10 | 1.3 | 0.4% | 1.3% | -1 | -0.7 | 19% |
| COc1ccc(NC(=S)NC(=O)c2cc3ccccc3o2)c(OC)c1 | -11 | . | ? | 2.6% | 1 | 0.8 | -10% |
| CCN1CCN(C(=O)Cn2c(-c3cccs3)cc3cc(Cl)ccc32)CC1 | 0 | . | -2.1% | 32µM* | . | 0.4 | . |
| O=C(Cc1ccc(Cl)cc1)NCCCNC(=O)c1cccnc1 | -17 | . | 4.6% | . | 12 | -0.3 | 4% |
| CC(C)c1ccc(C(=O)CC2(O)C(=O)N(CCc3ccccc3)c3ccc(Cl)cc32)cc1 (stereo not drawn) | 3 | . | 0.4% | -0.3% | . | 0.2 | . |
| CC(=O)Nc1ccc(-n2cc3c(c2-c2ccc(C)cc2)c(=O)n(C)c(=O)n3C)cc1 | -9 | . | 2.3% | 20µM* | . | -0.9 | . |
| Oc1ccccc1CN1CCCN(Cc2ccccc2O)C1 | 22 | -0.7 | -2.2% | -2.9% | 18 | 1.0 | 12% |
| COc1ccc(CCN(C(=O)C(F)(F)F)C(C(=O)NC2CCCCC2)c2cccs2)cc1 (stereo not drawn) | 4 | 3.3 | 4.3% | 0.2% | 3 | 2.8 | 26% |
| COc1ccc(N2C(=O)C(CC(=O)Nc3ccc(F)cc3)N(CCc3ccc(OC)c(OC)c3)C2=O)cc1 (stereo not drawn) | 15 | 1.1 | 0.9% | 1.0% | 9 | -0.5 | 15% |
| O=C(NCC1CCCO1)C1c2ccccc2Oc2ccccc21 (stereo not drawn) | 3 | -1.4 | 0.6% | . | 4 | 0.9 | 28% |
| O=C(CN1CCN(S(=O)(=O)c2ccc(F)c(Cl)c2)CC1)N1CCOCC1 | -1 | . | 0.6% | 1.5% | 6 | -0.3 | . |
| O=C(Nc1cc(Cl)ccc1Cl)c1ccc(OC(=O)c2ccco2)cc1 | -10 | 7.2 | ? | 2.1% | 21 | 3.3 | 21% |
| CC(C)CCN1CCN(CC#Cc2ccccc2)CC1CCO (stereo not drawn) | 11 | -6.5 | 0.7% | 0.8% | -49 | -0.2 | 3% |
| COc1ccc(N2CCN(CCNS(=O)(=O)c3ccc(C)cc3)CC2)cc1 | -7 | 1.0 | -1.8% | . | -1 | 0.0 | 18% |
| COc1ccc(CNC(=O)CNC(=O)CNS(=O)(=O)c2ccc(C)c(C)c2)cc1 | 11 | -0.3 | 1.3% | -2.2% | 8 | -0.6 | 3% |
| Cc1ccc(NC(=O)COC(=O)c2cc(=O)c3ccccc3o2)c(Br)c1 | 4 | . | -1.6% | 1.1% | . | 0.5 | . |
| O=C(COc1ccccc1Cl)Nc1cnn(Cc2ccccc2)c1 | -7 | -1.1 | -0.1% | 2.2% | -3 | 0.0 | 3% |
| CCOc1cccc2cc(-c3nc4sc5c(c4c(=O)[nH]3)CCC(C(C)(C)C)C5)c(=O)oc12 (stereo not drawn) | 33 | . | 4.3% | 1.9% | . | 0.4 | . |
| COc1ccc(C2Nc3ccccc3C(=O)N2c2ccccc2)cc1COc1ccccn1 (stereo not drawn) | 7 | -1.5 | . | 28µM* | -6 | -0.3 | 9% |
| COc1ccc(Oc2ccc(C(F)(F)F)cc2N)cc1 | -10 | 0.8 | 1.6% | -2.8% | -4 | 2.7 | 9% |
| COc1cccc(C(c2sc3nc(-c4ccco4)nn3c2O)N2CCC3(CC2)OCCO3)c1 (stereo not drawn) | 22 | . | 3.9% | -0.4% | . | 4.3 | . |
| Cc1cc(Br)ccc1NC(=O)CSCc1c(C)noc1C | 3 | . | 3.0% | 1.5% | . | 0.0 | . |
| COc1ccccc1CCC(=O)Nc1cccc(S(=O)(=O)N2CCOCC2)c1 | 3 | -5.2 | -0.7% | 2.1% | -16 | 0.7 | 21% |

Among those listed so far, two have a tert-butyl group:
| Molecule | TRPML1 inh | Menin MLL FP FL | PINK1 expr mod | ClpP mod | TRPV1 potentiator | TRPML1 ag | Sfp inh |
| --- | --- | --- | --- | --- | --- | --- | --- |
| CN1CCN(C(=O)c2cnn(-c3ccccc3)c2C2CCN(C(=O)OC(C)(C)C)CC2)CC1 | 1 | . | 2.0% | -1.2% | . | -0.4 | . |
| CCOc1cccc2cc(-c3nc4sc5c(c4c(=O)[nH]3)CCC(C(C)(C)C)C5)c(=O)oc12 (stereo not drawn) | 33 | . | 4.3% | 1.9% | . | 0.4 | . |

(next part)
| Molecule | TRPML1 inh | Menin MLL FP FL | PINK1 expr mod | ClpP mod | TRPV1 potentiator | TRPML1 ag | Sfp inh |
| --- | --- | --- | --- | --- | --- | --- | --- |
| O=c1[nH]cnc2c1nc(Cl)n2C1OC(CO)C(O)C1O (stereo not drawn) | . | -1.3 | -0.6% | . | . | . | 3% |
| CC(C)c1cc(N=NC(N)=O)cc(C(C)C)c1O | -11 | -2.7 | -1.1% | 1.6% | -1 | 1.1 | 6% |
| COc1cccc(C(=O)N2CCN(c3ncccn3)CC2)c1 | 63 | -0.2 | -2.2% | -10% | 8 | 1.0 | 12% |
| N=c1n(CCCOc2ccc(Br)cc2)c2ccccc2n1CC(N)=O | 2 | 0.9 | -2.2% | 1.4% | . | 1.1 | -12% |
| COCCCN(C(=O)CCOc1ccccc1C)c1c(N)n(Cc2ccccc2)c(=O)[nH]c1=O | 3 | . | 0.8% | . | 20 | 0.0 | . |
| CCOC(=O)C1CCN(c2ccc(C(N)=O)cc2[N+](=O)[O-])CC1 | 6 | 0.8 | -1.4% | -2.8% | -3 | 0.9 | 0% |
| C=CCOc1ccc(/C=N/n2nnnc2N)cc1OC | -10 | . | 0.1% | -25% | . | 1.2 | . |
| COc1cc(Cl)c(NS(=O)(=O)c2c(C(=O)N3CCCC3)c(C)n(C)c2C)c(OC)c1 | 15 | -0.9 | 0.6% | 0.4% | 0 | -0.5 | 23% |
| CN(C(=O)c1cc(C(=O)N(C)c2ccccc2)cc([N+](=O)[O-])c1)c1ccccc1 | -8 | 0.2 | -0.2% | -1.0% | 2 | 0.5 | -5% |
| CN(Cc1ccccc1)Cc1nc2c(c(=O)n(C)c(=O)n2C)n1Cc1ccc(F)cc1 | 28 | 3.0 | 0.8% | -0.1% | -10 | 2.2 | -12% |
| CC(O)(C#CCN1CCOCC1)c1ccccc1 (stereo not drawn) | 5 | 1.9 | -1.3% | -2.0% | 12 | 0.0 | 20% |
| CCCCCCOc1ccc(C(CC(=O)O)C(N)=O)cc1 (stereo not drawn) | 7 | -7.2 | -0.3% | -0.7% | 1 | -0.1 | 7% |
| Cc1ccc2nc(-c3ccc(-c4ccccn4)s3)cn2c1 | 42 | 2.3 | 1.3% | 3.1% | 19 | -0.5 | -8% |
| Cc1cccc(NC(=O)C2CCN(S(=O)(=O)c3ccc4c(c3)CCCN4C(=O)C3CCC3)CC2)c1 | -17 | . | -1.7% | -4.0% | . | 0.5 | . |
| O=C(C[n+]1cccc(NC(=O)c2ccccc2)c1)c1ccc(NC(=O)c2ccccc2)cc1 | 10 | -1.1 | -2.6% | 0.9% | 15 | -1.4 | 7% |
| CCN(CC)C(=O)c1sc2c(c1C)c(=O)n(Cc1ccccc1)c(=O)n2CC(=O)Nc1ccc(OC)cc1 | 3 | . | 0.0% | 0.9% | . | 11 | . |
| O=C(COc1ccc(F)cc1)Nc1nnc(SCc2cc(=O)n3ccccc3n2)s1 | 19 | . | 1.1% | -3.8% | . | 1.1 | . |
| CC1(C(=O)NS(=O)(=O)c2cccc(F)c2)CCN1C(=O)CC1CCCC1 (stereo not drawn) | . | . | 0.5% | 0.7% | . | -0.1 | . |
| Cc1ccc(NC(=O)CSc2nnc(-c3cccnc3)n2-c2ccc(C)cc2)cc1 | 14 | -0.1 | 0.3% | -4.0% | -4 | 0.1 | 22% |
